Screening data from PubChem.
LANA-H2A inh = blockers of LANA interaction with H2A/H2B – biochemical, FP readout, HTS, primary screen | cell-free LANA-H2A/H2B peptide, fluorescence polarization | AID 2629, 2010 | Protein LANA1 (Human herpesvirus 8 type P (isolate GK18)), Q9QR71 | inhibition, % (no concentration beside the values) | hit rate 0.6% among 320,000; in the data active means inhibition mostly above about 10%, no sharp cut-off; inactive means mostly below about 6.7%;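 further: stock transfer was 7.5 nL into about 10 µL; 0% = median of vehicle wells and 100% = median of positive control wells; one replicate is shown; the record names a cut of 25% in any replicate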
T cruzi inh = inhibitors of intracellular T. cruzi growth, primary screen, luminescence, NIH3T3 host cells | hit rate 1.4% among 300,000 | T. cruzi beta-gal in NIH3T3, 90 h | inhibition, % (no concentration beside the values);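 active means mean inhibition across valid replicates above about 55%, limit read from the data; inconclusive means mean below that limit but half or more replicates reach it; inactive means mean below it, under half of replicates reach it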;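 further: signal also drops with host cell toxicity which is not excluded here; 0% = plate median of DMSO wells and 100% = zero luminescence signal; higher percent means less beta-gal luminescence so fewer parasites; stock transfer was 50 nL into about 50 µL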
Beta2AR agonist = beta2AR agonists driving receptor internalization, primary screen, cell-based, FAP fluorogen, flow cytometry. Beta-2 adrenergic receptor (Homo sapiens), P07550. Am2.2-beta2AR cells; reference of the scale not given here. response, % (test concentration not listed). hit rate 0.43% among 340,000. AID 504454, 2011;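 active means response above a set limit, near 3 SD of response in nonfluorescent compounds, cut at about 42% in these data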;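 further: stock transfer was 100 nL into about 11 µL; a reference agonist was the positive control; negative values mostly stem from fluorescent compounds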
Target sequence (P07550 whole entry, looked up): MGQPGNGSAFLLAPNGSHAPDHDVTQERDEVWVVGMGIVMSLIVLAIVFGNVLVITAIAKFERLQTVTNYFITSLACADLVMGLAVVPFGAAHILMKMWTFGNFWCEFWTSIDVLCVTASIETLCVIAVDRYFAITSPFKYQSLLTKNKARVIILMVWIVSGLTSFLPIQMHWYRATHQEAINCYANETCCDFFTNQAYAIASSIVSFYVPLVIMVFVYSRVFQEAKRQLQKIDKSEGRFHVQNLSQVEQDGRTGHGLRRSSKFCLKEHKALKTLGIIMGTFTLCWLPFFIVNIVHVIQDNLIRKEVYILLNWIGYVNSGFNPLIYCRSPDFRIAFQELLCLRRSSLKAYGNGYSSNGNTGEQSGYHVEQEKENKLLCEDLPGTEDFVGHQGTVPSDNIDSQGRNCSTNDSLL
UCH37 inh = inhibitors of human UCH37 deubiquitinase, primary screen, biochemical, Ub-AMC cleavage, fluorescence. Ubiquitin carboxyl-terminal hydrolase isozyme L5 (Homo sapiens), Q9Y5K5. purified proteasome/UCH37. inhibition, % (test concentration not listed). hit rate 0.33% among 330,000. AID 588478, 2011;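 active means mean of two replicates above 20%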;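 further: 0% = compound-free wells with enzyme and 100% = wells lacking proteasome; stock transfer was 100 nL into about 20 µL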
Target sequence (Q9Y5K5 whole entry, looked up): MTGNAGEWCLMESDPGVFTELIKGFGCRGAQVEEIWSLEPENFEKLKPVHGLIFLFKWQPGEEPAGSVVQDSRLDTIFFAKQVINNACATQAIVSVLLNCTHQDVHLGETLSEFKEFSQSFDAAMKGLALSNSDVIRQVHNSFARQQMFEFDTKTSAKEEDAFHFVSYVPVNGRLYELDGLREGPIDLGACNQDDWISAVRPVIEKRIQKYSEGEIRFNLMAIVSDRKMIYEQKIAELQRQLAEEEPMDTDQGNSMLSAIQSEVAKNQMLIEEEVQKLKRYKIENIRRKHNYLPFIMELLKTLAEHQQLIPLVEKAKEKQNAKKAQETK
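Assay system: Proteasome-bound UCH37. Buffer or medium: pH 7.4 Tris-HCl (50 mM) with ovalbumin, ATP-MgCl2, DTT. Incubation: 30 min preincubation with enzyme, 25 min cleavage at room temperature. Measured by: fluorescence, ex 355 nm, em 460 nm. Read-out basis: percent inhibition. Control set: wells without proteasome as full block, compound-free enzyme plus substrate as uninhibited.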
A1 inh = caspase 3/7 activation in MEF A1-2A-BIM cells, primary screen, A1 inhibitor project, cell-based, luminescence, HTS | Caspase-Glo 3/7 luminescence, 3 h; percent of clofoctol response, vehicle zero | caspase activation, % (no concentration beside the values) | hit rate 0.066% among 330,000 | AID 2462, 2010;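 active means over half of replicate activation scores above 10%, or exactly half above 10 with the replicate mean above 10; inconclusive means replicate mean below 10 yet half the replicates above 10; inactive means over half of replicates below 10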;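 further: wells of about 30 µL received 50 nL stock; many hits fall short of the cut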
Calb FLC = C. albicans growth inhibition with fluconazole, primary screen, CaCi-2 strain, Alamar Blue fluorescence; growth inhibition, % (concentration not given with the values); AID 1979, 2009; hit rate 0.57% among 300,000; C. albicans CaCi-2 (fluconazole-resistant clinical isolate) + fluconazole, 48 h;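 active means most replicates above 75%; inconclusive means exactly half above 75%; inactive means most below 75%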;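 further: all wells also contain fluconazole at 8 µg/ml as a sub-toxic cotreatment; 0% = median of DMSO wells and 100% = median of geldanamycin control wells; wells of about 8 µL received 7.5 nL stock; the first replicate is given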
Beta cell apopt = inhibitors of cytokine-induced beta cell apoptosis, primary screen, luminescence | INS-1E cytokine-induced death, ATP luminescence, 48 h; percent of positive-control rescue, neutral wells zero | AID 435005, 2010 | protection from apoptosis, % (concentration not given with the values) | hit rate 0.8% among 300,000;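 active means all replicates at 75% or more, or half of them and the mean; inconclusive means half reach 75% but not the mean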;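 further: 0% = cytokine-treated negative control wells and 100% = positive control rescue; higher means more ATP so stronger rescue from cytokine killing; wells of about 40 µL received 100 nL stock; the first replicate is given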
RanGTP-Imp inh = inhibitors of RanGTP-importin-beta interaction, primary screen, biochemical, FRET, CFP-Ran, YFP-importin-beta, homogeneous | Ran GTPase (GTP-bound) - importin-beta complex | cell-free CFP-Ran/YFP-importin-beta FRET ratio | inhibition, % (test concentration not listed) | hit rate 1.1% among 300,000;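 active means most replicates above 15%; inconclusive means exactly half above 15%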;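 further: 0% = DMSO wells and 100% = Ran loaded with GDP instead of GTP; wells of about 40 µL received 100 nL stock; the first replicate is given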
* hit, by the source's call; i = inactive; u = inconclusive; x = not tested or not shown.

molecule	LANA-H2A inh	T cruzi inh	Beta2AR agonist	UCH37 inh	A1 inh	Calb FLC	Beta cell apopt	RanGTP-Imp inh
Cc1ccc(C(=O)N2CC(=O)Nc3ccccc32)o1	0.3	-3	-3	0.1	-0.7	5	-11	-5.6
Cc1cccc(C(=O)O[C@H]2[C@H](C)NS(=O)(=O)[C@H]3CC4C=C[C@]23O4)c1	-2.4	x	1	3.6	0.1	x	-3	x
COc1ccc(-n2c(=O)c3ccccc3n(CC(=O)NCC3CCCO3)c2=O)cc1 (stereo unspecified)	-1.3	-3	5	3.8	0.6	-7	-1	1.1
NC(=S)c1ncc(C(F)(F)F)cc1Cl	-2.2	-18	-5	1.5	1.6	-2	x	-1.0
COc1ccc(CNC(=O)C(c2ccc(C)o2)N(Cc2cccs2)C(=O)Cc2cccs2)cc1 (stereo unspecified)	-1.2	3	9	4.1	0.5	8	-4	-3.9
CCOc1ccc(-c2nnc3n2N=C(c2ccc(OC)cc2)CS3)cc1	1.5	13	-28	0.9	1.0	0	-20	1.8
COC(=O)c1cn(C(=O)c2ccc(Cl)cc2)c2ccccc12	-3.6	-23	5	1.7	0.8	10	-4	4.1
Cc1ccc2[nH]c(=O)c(CN(Cc3cccnc3)C(=S)NCCCN(C)C)cc2c1	0.8	-10	-10	-6.4	-0.3	20	-2	2.6
CC(=O)c1ccc(C(=O)NC2CC(C)(C)Cc3c2cnn3-c2ccccc2)cc1 (stereo unspecified)	1.6	1	-5	2.6	-0.2	4	21	u
Cc1ccc(C)c(-n2c(-c3csc(C)c3)n[nH]c2=S)c1	9.8	5	3	0.6	0.0	41	-18	x
Cc1onc(-c2c(F)cccc2Cl)c1C(=O)Nc1nc2c(s1)CCCC2	-0.6	29	9	2.9	-0.1	-13	10	-1.3
O=C(Nc1ccc(-c2cn3ccsc3n2)cc1)c1ccc(F)c(S(=O)(=O)N2CCOCC2)c1	-0.8	5	26	-7.9	0.3	42	1	-1.1
CC1(C)CC(=O)C(C(O)c2ccccc2)C(C)(C)N1 (stereo unspecified)	1.5	-2	4	3.6	0.2	-8	-4	-0.3
Cc1ccc(C)c2[nH]c(=O)c(CCNC(=O)c3ccc(S(=O)(=O)N4CCCC4)cc3)cc12	-1.7	11	9	2.2	-0.4	6	3	2.1
CC1(C)CC2(CC(c3ccccc3F)c3ccc(O)c(O)c3O2)NC(=S)N1 (stereo unspecified)	2.7	11	4	-0.5	0.3	5	-16	-0.7
CCOc1ccc(CNC(=O)C2CC(=O)N(C3CCCC3)C2)cc1OC (stereo unspecified)	-1.2	-27	-7	1.2	-0.6	-1	-3	u
Cc1ccc(CN2CCN(/N=C/c3cc(Br)ccc3O)CC2)cc1	0.5	5	-3	x	-0.2	-7	3	-3.5
CC1(C(=O)NNC(=O)C2CCCCC2)CC1(Cl)Cl (stereo unspecified)	2.4	1	7	1.6	-0.4	-7	-7	4.1
COc1ccc2cc3cc(C(=O)NC(C)C)oc3nc2c1	-1.5	16	0	i	-1.4	0	0	3.0
CSc1ccccc1NC(=O)c1cc(C2CC2)on1	-3.3	-13	8	4.3	-2.4	-4	7	-1.3
O=C(NC1CCCC1)c1cc(-c2ccccc2)nc2ccccc12	-0.5	5	-4	4.4	1.5	-77	-1	-0.7
O=C(Nc1ccc2c(c1)OC1(CCCC1)O2)C1CC1	-6.3	3	-13	4.0	0.9	-17	x	-1.5
CCCn1c(SCC(=O)N2c3ccc(F)cc3CCC2C)nnc1-c1ccccn1 (stereo unspecified)	5.9	6	-2	3.5	-1.1	u	-4	0.3
Cc1ccc2c(c1)sc(C)[n+]2CCCS(=O)(=O)[O-]	-4.9	-11	2	0.3	-1.6	-4	5	0.9
Cc1ccc(NC(=O)CSc2ccc(C(N)=O)cc2[N+](=O)[O-])cc1	0.1	-9	6	-1.4	0.5	3	1	-1.4
CC(=O)C(Sc1nccc(-c2cccs2)n1)C(C)=O	-8.1	-14	-3	7.9	0.2	-33	-5	7.3
O=C(O)c1ccccc1NS(=O)(=O)c1ccc(NN=Cc2ccc(F)cc2)c([N+](=O)[O-])c1	-2.8	x	-4	11	0.6	x	4	x
O=C(NC1CCCCC1)C(c1ccc(F)cc1)N(Cc1ccco1)C(=O)CN1C(=O)c2ccccc2S1(=O)=O (stereo unspecified)	-10	7	-6	6.5	-0.1	-1	-1	-2.0
N/C(Cc1cccc2ccccc12)=N\OC(=O)Cc1cccs1	-4.8	9	29	-1.5	1.0	2	4	-2.0
Nc1c(C(=O)NCCc2ccccc2)nnn1Cc1ccccc1	-4.6	-18	-9	1.5	0.1	12	-2	2.3
Cc1ccc(NC(=O)C(C)Sc2nnc(-c3cccnc3)n2-c2ccccc2)cc1 (stereo unspecified)	2.9	-20	-15	4.3	-0.2	-7	4	u
CCC1=Nc2ccccc2-c2nnc(SC)nc2O1	-5.2	-1	-2	6.6	0.1	-27	-1	-1.6
O=C(Nc1ccnn1C1CCN(C2CCCCC2)CC1)c1ccccc1	x	5	9	x	x	1	x	2.0
CC1CN(C(=O)CCc2cc(C(C)(C)C)c(O)c(C(C)(C)C)c2)CC(C)O1 (stereo unspecified)	-0.9	1	-1	-1.6	0.6	-3	23	3.1
COc1cc(N(Cc2ccccc2)Cc2ccccc2)c2ncn(C(C)C)c2c1	-5.6	x	1	1.6	1.6	x	1	x
CCOC(=O)N1CCC(NC(=O)c2cc3c(-c4cccc(OC)c4)nn(C)c3s2)CC1	0.8	3	23	-18	-1.1	12	5	1.5
c1cncc(CNc2ncnc3sc4c(c23)CCC4)c1	-2.3	-9	-2	4.0	-0.5	-5	-5	-2.5
COc1ccc(OC)c(-c2nnc(SCC(=O)N3CCCC3)o2)c1	0.5	4	-1	1.0	-0.2	-4	0	-1.3
Cc1ccc(CSCC(=O)Nc2c(C)n(C)n(-c3ccccc3)c2=O)cc1	0.6	-4	-7	5.4	-0.5	2	-2	-0.4
N#C/C(=C(/O)COC(=O)CSc1ccc2ccccc2c1)c1nc2ccccc2[nH]1	0.0	-12	17	0.0	-2.1	39	-3	5.6
O=C(Nc1cccnc1)C1CCN(S(=O)(=O)c2cccc3nonc23)CC1	-0.4	3	-4	1.7	0.2	3	x	8.6
Cc1ccccc1OCC(=O)OCC(=O)Nc1cc(C(F)(F)F)ccc1N1CCOCC1	0.1	-3	-1	2.3	0.4	-5	-8	1.2
COc1ccc(OC)c(NC(=O)Nc2ccc3c(c2)CCC3)c1	2.4	33	3	2.2	0.4	-4	0	4.0
O=C(c1ccc(S(=O)(=O)N2CCCC2)cc1)N1CCCCCC1	x	-1	0	1.5	x	2	x	2.7
O=C(CCC(=O)c1ccc(F)cc1)Nc1cc(Cl)cc(Cl)c1	-11	13	4	5.7	-0.3	-5	2	1.3
COc1ccc(/C=C/C(=O)NC(=S)N2CCSCC2)cc1	1.6	5	1	7.8	-0.3	2	-8	-4.4
Cc1ccc(NC(=O)COC(=O)CCC(=O)c2cccs2)c(C)c1	-0.2	-1	19	2.0	-1.0	-3	-2	1.9
Nc1ncc(CN2CCCC(C(=O)Nc3ccc(-c4ccco4)cc3)C2)cn1 (stereo unspecified)	3.5	-2	5	2.0	0.0	2	0	-0.4
COc1ccccc1NC(=O)c1sc2ncn(Cc3ccc(C)cc3)c(=O)c2c1C	-0.4	27	-14	-289	-0.3	-6	7	-1.3
NC(=O)c1c(NC(=O)CN2C(=O)NC(Cc3ccccc3)C2=O)sc2c1CCC2 (stereo unspecified)	-0.2	-6	-5	0.1	0.9	2	-3	6.6
O=C(CN1C(=O)C2C3C=CC(C3)C2C1=O)OCC(=O)c1ccccc1 (stereo unspecified)	1.8	-8	-1	1.6	0.6	2	0	-1.4
Cc1cc(=O)oc(C)c1C(=O)NCc1ccccc1	0.4	10	-3	0.9	x	1	-5	3.5
N#C/C(=C(/O)c1ccc(C(=O)c2ccccc2)cc1)c1nc2ccccc2[nH]1	-0.2	-2	-12	-3.9	0.5	-3	7	-3.9
C=C1CCN([C@@H](CC(C)C)C(=O)N2CCOCC2)S(=O)(=O)c2ccccc21	-2.1	-1	6	-2.1	-1.0	-2	-2	2.4
Cc1nc2ccc(F)cc2cc1C(=O)NCC1CCCO1 (stereo unspecified)	x	17	-6	0.0	x	-8	x	3.2

Single records, from the list above. Order of screens: LANA-H2A inh	T cruzi inh	Beta2AR agonist	UCH37 inh	A1 inh	Calb FLC	Beta cell apopt	RanGTP-Imp inh
O=C(NC1CCCC1)c1cc(-c2ccccc2)nc2ccccc12 as listed: -0.5	5	-4	4.4	1.5	-77	-1	-0.7
O=C(Nc1ccc(-c2cn3ccsc3n2)cc1)c1ccc(F)c(S(=O)(=O)N2CCOCC2)c1 as listed: -0.8	5	26	-7.9	0.3	42	1	-1.1
Cc1ccc(NC(=O)CSc2ccc(C(N)=O)cc2[N+](=O)[O-])cc1 as listed: 0.1	-9	6	-1.4	0.5	3	1	-1.4
